PK Bst = modulators of Bacillus stearothermophilus pyruvate kinase; partly purified Bacillus stearothermophilus pyruvate kinase, luminescence ATP production; ribose 5-phosphate activator present at AC10; Potency, µM; 51,000 compounds, 1.2% hits; AID 361; in the data active means potency below about 11 µM; inconclusive means mostly about 12 µM to 25 µM; inactive means weaker than that;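 the screen sought inhibitors and activators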;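 note: potency is the fitted concentration of half-maximal effect; scaled between full activation by ribose 5 phosphate and full inhibition by luteolin; about four in five hits inhibit and the cells do not say which; series up to 57 µM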
TsaE inh = inhibitors of E. coli YjeE (TsaE). Potency, µM. purified YjeE, fluorescence polarisation of a bound ADP probe. AID 605. 71,000 compounds, 0.05% hits. P0AF67; active = well fitted falling curve; inconclusive = weaker or top-dose-only fall, or a rising curve; inactive = flat or poorly fitted curve;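 note: top concentration of the series not given in the record; excess ADP was the control for the full effect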
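Fluorescence polarization of a BODIPY Texas Red–ADP probe (2 uM) bound to purified YjeE (10 uM) was read after 15 min room-temperature incubation with compounds. Loss of polarization marks inhibitors; ADP serves as titrated control.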
Numbers without * were called inactive; i = inactive; . = not tested or not shown; & = joins results of further samples.

smiles: CCOc1ccccc1C(N)=O
  PK Bst: . | TsaE inh: i

smiles: Cc1nc2ccccn2c(=O)c1CCN1CCC(C(=O)c2ccc(F)cc2)CC1
  PK Bst: >25.6 | TsaE inh: i

smiles: C1CCC(C(CC2CCCCN2)C2CCCCC2)CC1 (configuration not stated)
  PK Bst: >11.4 | TsaE inh: .

smiles: c1ccc(CC2=NCCN2)cc1
  PK Bst: . | TsaE inh: i

smiles: O=S(=O)(c1cccc2cnccc12)N1CCCNCC1
  PK Bst: >25.6 | TsaE inh: i

smiles: CC(=O)c1ccc2c(c1)N(CCCN(C)C)c1ccccc1S2
  PK Bst: . | TsaE inh: i

smiles: O=C(NCCc1c[nH]c2ccccc12)c1cccnc1
  PK Bst: >57 | TsaE inh: i

smiles: CC[N+](C)(CC)CCOC(=O)C(O)(c1ccccc1)C1CCCCC1 (configuration not stated)
  PK Bst: >11.4 | TsaE inh: .

smiles: Oc1ccc(/C=C/c2cc(O)cc(O)c2)cc1
  PK Bst: 3.65* | TsaE inh: i

smiles: C[C@]12CCC(=O)C=C1CC[C@@H]1[C@@H]2CC[C@@]2(C)[C@H]1CC[C@]2(O)C(=O)CO
  PK Bst: >25.6 | TsaE inh: .

smiles: CCCCCCCCCCCCCCC[C@H](O)[C@H](N)CO
  PK Bst: . | TsaE inh: i

smiles: CCCn1cnc2c1c(=O)n(CCCCC(C)=O)c(=O)n2C
  PK Bst: . | TsaE inh: i

smiles: CCC(C)n1ncn(-c2ccc(N3CCN(c4ccc(OCC5COC(Cn6cncn6)(c6ccc(Cl)cc6Cl)O5)cc4)CC3)cc2)c1=O (configuration not stated)
  PK Bst: >11.4 | TsaE inh: .

smiles: CN(C)CCOC(=O)[C@@H](c1ccccc1)C1(O)CCCC1
  PK Bst: . | TsaE inh: i

smiles: CC(COc1ccccc1)NC(C)C(O)c1ccc(O)cc1 (configuration not stated)
  PK Bst: >25.6 | TsaE inh: .

Fetched one by one from the entries so far (2):
smiles: CC(=O)c1ccc2c(c1)N(CCCN(C)C)c1ccccc1S2
  PK Bst: . | TsaE inh: i

smiles: CC[N+](C)(CC)CCOC(=O)C(O)(c1ccccc1)C1CCCCC1 (configuration not stated)
  PK Bst: >11.4 | TsaE inh: .

An excerpt of these results, with values under each structure:
Under each structure – PK Bst | TsaE inh
CC(=O)c1ccc2c(c1)N(CCCN(C)C)c1ccccc1S2
    . | i
O=C(NCCc1c[nH]c2ccccc12)c1cccnc1
    >57 | i
CC[N+](C)(CC)CCOC(=O)C(O)(c1ccccc1)C1CCCCC1 (configuration not stated)
    >11.4 | .
Oc1ccc(/C=C/c2cc(O)cc(O)c2)cc1
    3.65* | i
C[C@]12CCC(=O)C=C1CC[C@@H]1[C@@H]2CC[C@@]2(C)[C@H]1CC[C@]2(O)C(=O)CO
    >25.6 | .

(cont.)
smiles: COc1ccccc1N1CCN(CCCNc2cc(=O)n(C)c(=O)n2C)CC1
  PK Bst: . | TsaE inh: i

smiles: c1ccc(CN(CC2=NCCN2)c2ccccc2)cc1
  PK Bst: >25.6&>25.6 | TsaE inh: i

smiles: Cc1ccccc1OC[C@H](O)CO
  PK Bst: . | TsaE inh: i

smiles: O=C(c1ccc(F)cc1)C1CCN(CCn2c(=O)[nH]c3ccccc3c2=O)CC1
  PK Bst: >25.6 | TsaE inh: i

smiles: NC(N)=NCCC[C@H](N)C(=O)O
  PK Bst: . | TsaE inh: i

smiles: CCCN[C@@H](C)C(=O)Nc1c(C)csc1C(=O)OC
  PK Bst: . | TsaE inh: i

smiles: C/C=C\C(=O)N(CC)c1ccccc1C
  PK Bst: . | TsaE inh: i

smiles: CC(=O)NC(Cc1ccccc1)C(=O)O (configuration not stated)
  PK Bst: >57 | TsaE inh: i

smiles: CCOC(=O)c1ccc(N)cc1
  PK Bst: . | TsaE inh: i

smiles: CN(C)CCOC(C)(c1ccccc1)c1ccccn1 (configuration not stated)
  PK Bst: >25.6 | TsaE inh: .

smiles: CCCCCCN
  PK Bst: . | TsaE inh: i

smiles: CCN(CC)CCNC(=O)c1cc(Cl)c(N)cc1OC
  PK Bst: >25.6 | TsaE inh: i

smiles: Cc1c(NC(=O)c2cccnc2)c(=O)n(-c2ccccc2)n1C
  PK Bst: . | TsaE inh: i

smiles: OCCN1CCN(CCCN2c3ccccc3Sc3ccc(Cl)cc32)CC1
  PK Bst: i | TsaE inh: i

smiles: O=C(CCNNC(=O)c1ccncc1)NCc1ccccc1
  PK Bst: >25.6 | TsaE inh: i

smiles: COc1ccc(/C=C/C(=O)Nc2ccccc2C(=O)O)cc1OC
  PK Bst: i | TsaE inh: .

smiles: CC12CCC(CC1)C(C)(C)O2
  PK Bst: . | TsaE inh: i

smiles: Oc1cc(O)c2c(c1)O[C@H](c1ccc(O)c(O)c1)[C@@H](O)[C@@H]2c1c(O)cc(O)c2c1O[C@@H](c1ccc(O)c(O)c1)[C@H](O)C2
  PK Bst: . | TsaE inh: i

smiles: CN1CCN(C(c2ccccc2)c2ccccc2)CC1
  PK Bst: . | TsaE inh: i

smiles: CC(=O)c1ccc(S(=O)(=O)NC(=O)NC2CCCCC2)cc1
  PK Bst: . | TsaE inh: i

smiles: CN(C(=O)CCCOc1ccc2[nH]c(=O)ccc2c1)C1CCCCC1
  PK Bst: . | TsaE inh: i

smiles: CC[C@H](Cc1c(I)cc(I)c(N)c1I)C(=O)O
  PK Bst: . | TsaE inh: i

smiles: CC(=O)Nc1ccc(C(=O)O)cc1
  PK Bst: . | TsaE inh: i

smiles: Cc1cc(-c2ccccc2)nnc1NCCN1CCOCC1
  PK Bst: >11.4 | TsaE inh: i

smiles: CC1=CC(=O)NS(=O)(=O)O1
  PK Bst: . | TsaE inh: i

smiles: CCCCCCO
  PK Bst: . | TsaE inh: i

Of the compounds above, 5 have a COOH group:
smiles: NC(N)=NCCC[C@H](N)C(=O)O
  PK Bst: . | TsaE inh: i

smiles: CC(=O)NC(Cc1ccccc1)C(=O)O (configuration not stated)
  PK Bst: >57 | TsaE inh: i

smiles: COc1ccc(/C=C/C(=O)Nc2ccccc2C(=O)O)cc1OC
  PK Bst: i | TsaE inh: .

smiles: CC[C@H](Cc1c(I)cc(I)c(N)c1I)C(=O)O
  PK Bst: . | TsaE inh: i

smiles: CC(=O)Nc1ccc(C(=O)O)cc1
  PK Bst: . | TsaE inh: i

Only part of the results is shown (hit frequency here may not be typical).
